Screens: PubChem, several laboratories
E coli growth – E. coli growth inhibition, primary screen, OD600 | 330,000 tested, 0.21% active | Escherichia coli growth, 23 h; stronger effect = lower value | AID 1053175, 2014 | OD600 absorbance (no concentration beside the values);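 active = OD600 absorbance below the run mean of sample wells minus 3.6 SD, in any replicate, cut at about 0.56 in these data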;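 also: stock transfer was 300 nL into about 60 µL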
HNF4A DNA FP – change in binding of human HNF4A to DNA, primary screen, biochemical, fluorescence polarization, FITC-DNA. 360,000 tested, 0.3% active. activity change, % at 10 µM. Hepatocyte nuclear factor 4-alpha (Homo sapiens), P41235. 1 h. AID 1224865, 2016; in the data active = activity change above about 30%, passing the limit was not always enough;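 also: controls were the assay level and a saturating level of protein; the project sought stronger binding though the title names inhibitors; some compounds called inactive have numbers as strong as hits; positive values seem to mean higher polarization but the record does not say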
Target sequence (P41235 whole entry, looked up): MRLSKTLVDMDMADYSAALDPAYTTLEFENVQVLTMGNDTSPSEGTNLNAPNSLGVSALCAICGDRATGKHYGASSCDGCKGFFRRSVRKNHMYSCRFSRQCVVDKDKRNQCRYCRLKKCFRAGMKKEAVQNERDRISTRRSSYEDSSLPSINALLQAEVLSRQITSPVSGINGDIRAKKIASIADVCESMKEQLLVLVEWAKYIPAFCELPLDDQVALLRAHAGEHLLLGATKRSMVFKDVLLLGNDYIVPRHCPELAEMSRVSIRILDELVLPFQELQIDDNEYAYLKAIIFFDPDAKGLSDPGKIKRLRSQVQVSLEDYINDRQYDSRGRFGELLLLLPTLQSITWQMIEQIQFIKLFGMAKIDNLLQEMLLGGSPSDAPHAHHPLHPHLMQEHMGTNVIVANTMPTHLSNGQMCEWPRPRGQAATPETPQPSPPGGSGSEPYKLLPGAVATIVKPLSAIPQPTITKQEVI
Vif A3G – inhibitors of Vif binding to APOBEC3G peptide, primary screen, biochemical, TR-FRET, GST-Vif 1-94, biotin-A3G peptide, dose response retest (AID 1117319). 260,000 tested, 0.57% active. TR-FRET GST-Vif / biotin-A3G peptide binding; higher % means a stronger effect; test concentration not given here; strong numbers were not always called active. inhibition, %; hits with a dose series show IC50 in µM;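 active = above the screen mean plus three standard deviations and confirmed in dose response; inconclusive = results disagree or hit not tested in dose response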;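 also: Vif residues 1-94 fused to GST binding biotinylated APOBEC3G peptide 110-148; 0% = full assay without inhibitor and 100% = GST in place of GST-Vif; retest series ran down from 100 µM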
UCH37 inh – inhibitors of human UCH37 deubiquitinase, primary screen, biochemical, Ub-AMC cleavage, fluorescence | AID 588478, 2011 | Ubiquitin carboxyl-terminal hydrolase isozyme L5 (Homo sapiens), Q9Y5K5 | purified proteasome/UCH37 | 330,000 tested, 0.33% active | inhibition, % (no concentration beside the values);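 active = mean of two replicates above 20%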;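 also: 0% = compound-free wells with enzyme and 100% = wells lacking proteasome; stock transfer was 100 nL into about 20 µL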
Target sequence (Q9Y5K5 whole entry, looked up): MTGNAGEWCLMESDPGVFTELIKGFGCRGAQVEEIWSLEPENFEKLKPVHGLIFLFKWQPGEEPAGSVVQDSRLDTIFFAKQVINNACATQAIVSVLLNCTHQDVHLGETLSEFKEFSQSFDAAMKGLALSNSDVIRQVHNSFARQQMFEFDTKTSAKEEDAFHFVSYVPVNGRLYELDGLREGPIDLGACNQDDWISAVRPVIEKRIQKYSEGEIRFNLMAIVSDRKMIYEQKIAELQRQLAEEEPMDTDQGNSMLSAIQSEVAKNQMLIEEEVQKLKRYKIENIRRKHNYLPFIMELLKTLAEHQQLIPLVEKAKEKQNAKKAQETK
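Schedule: 30 min plus 25 min, room temperature / Material: human UCH37 within purified proteasomes / Technique: AMC fluorescence intensity at 355/460 nm / Buffer or medium: pH 7.4 Tris-HCl (50 mM) with ovalbumin, ATP-MgCl2, DTT / Controls: wells without proteasome as full block, compound-free enzyme plus substrate as uninhibited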
LANA-H2B inh – blockers of LANA interaction with H2A/H2B – biochemical, FP readout, HTS, primary screen; cell-free LANA-H2A/H2B peptide, fluorescence polarization; inhibition, % (concentration not given with the values); 320,000 tested, 0.6% active; AID 2629, 2010; in the data active = inhibition mostly above about 10%, no sharp cut-off; inactive = mostly below about 6.7%;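 also: stock transfer was 7.5 nL into about 10 µL; 0% = median of vehicle wells and 100% = median of positive control wells; one replicate is shown; the record names a cut of 25% in any replicate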
Bfl-1 A1 inh – caspase 3/7 activation in MEF A1-2A-BIM cells, primary screen, A1 inhibitor project, cell-based, luminescence, HTS. Caspase-Glo 3/7 luminescence, 3 h; percent of clofoctol response, vehicle zero. caspase activation, % (test concentration not listed). 330,000 tested, 0.066% active. AID 2462, 2010;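 active = over half of replicate activation scores above 10%, or exactly half above 10 with the replicate mean above 10; inconclusive = replicate mean below 10 yet half the replicates above 10; inactive = over half of replicates below 10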;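 also: wells of about 30 µL received 50 nL stock; many hits fall short of the cut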
Beta2AR agonist – beta2AR agonists driving receptor internalization, primary screen, cell-based, FAP fluorogen, flow cytometry; Beta-2 adrenergic receptor (Homo sapiens), P07550; Am2.2-beta2AR cells; reference of the scale not given here; response, % (no concentration beside the values); 340,000 tested, 0.43% active;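 active = response above a set limit, near 3 SD of response in nonfluorescent compounds, cut at about 42% in these data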;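 also: stock transfer was 100 nL into about 11 µL; a reference agonist was the positive control; negative values mostly stem from fluorescent compounds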
* marks the source's active call; other numbers are inactive results; ? = inconclusive; nt = no result given; & = joins results of further samples.

Results follow in this order: E coli growth	HNF4A DNA FP	Vif A3G	UCH37 inh	LANA-H2B inh	Bfl-1 A1 inh	Beta2AR agonist
COc1ccc(S(=O)(=O)N2CCCC2C(=O)NCC(=O)Nc2cccc(Cl)c2C)cc1 (stereo not drawn)
  0.66	-1.3	nt	2.2	0.1	1.9	1
CS(=O)(=O)c1ccccc1C(=O)N(CCC1=CCCCC1)c1c(N)n(Cc2ccccc2)c(=O)[nH]c1=O
  0.71	-0.8	1%	2.8	nt	0.2	1
O=C(COC(=O)/C=C/c1ccccc1)Nc1cccnc1Cl
  0.68	-3.0	nt	-1.9	-1.3	-0.8	-2
O=S(=O)(c1ccccc1)N1CCN(C(=S)Nc2ccc(Br)cc2)CC1
  0.68	-1.5	nt	5.3	-1.0	-0.2	0
CCOc1ccc(C(=O)C2CCN(CC(=O)Nc3ccccc3N3CCOCC3)CC2)cc1
  0.71	-0.1	9%&-13%	4.8	5.1	0.6	13
CC(C)CNC(=O)Cn1nc(C(F)(F)F)c2c1CCCC2
  0.72	2.5	nt	0.8	1.4	-0.4	-4
Cc1cc(Oc2ccc(=O)n(C)n2)nc(Oc2ccc(=O)[nH]n2)n1
  0.72	-2.0	-1%	4.1	3.6	-0.4	-7
O=C(NC1CCCC1)c1cc(-c2ccccc2Cl)on1
  0.63	-1.0	nt	-1.5	-3.8	-2.8	1
Cn1ccnc1SCC(=O)Nc1cc(C(F)(F)F)ccc1N1CCOCC1
  0.69	1.7	12%	0.0	-0.3	0.2	-1
CCOC(=O)C1CCCN(CCc2ccccc2)C1 (stereo not drawn)
  0.67	6.8	nt	1.5	1.3	-3.4	1
COCCCNC(=S)N(CCO)Cc1cc2cc3c(cc2[nH]c1=O)OCO3
  0.68	-0.3	2%	-120	-0.4	1.6	7
CCCCc1c(C)c(C#N)c2nc3ccccc3n2c1Nc1c(C)n(C)n(-c2ccccc2)c1=O
  0.73	-1.2	-11%	-3.8	4.8	0.1	-5
COCC(C)NC(=O)c1ccccc1[N+](=O)[O-] (stereo not drawn)
  0.67	1.2	-3%	-0.4	-1.7	1.3	-1
CC(C)CNS(=O)(=O)c1ccc(CC(C)C)cc1
  0.66	3.2	-10%	2.7	0.3	0.9	-8
NC(=O)N(N)c1nc(N2CCCC2)nc(N2CCCC2)n1
  0.63	0.0	-6%	-0.8	nt	1.3	0
CCn1c(=NC(=O)CSC(C)=O)sc2ccccc21
  0.73	-3.8	5%	5.9	-2.3	0.9	1
O=C(Nc1ccon1)c1ccc(Cl)c(S(=O)(=O)N2CCCCC2)c1
  0.7	-1.0	nt	1.0	3.4	-0.2	-12
Cc1c(C(=O)NCCCN2CCCC2=O)oc2ccccc12
  0.7	-1.2	5%	3.4	-0.9	0.3	-2
CCCCCCCCCCS(=O)(=O)N/N=C/c1ccc([N+](=O)[O-])cc1
  nt	-3.3	24%	nt	4.1	-2.0	9
O=C(O)c1ccccc1NS(=O)(=O)c1cccc(C(F)(F)F)c1
  0.64	-2.6	1%	1.3	-1.9	0.9	1
CC(C)(C)c1cc(/C=N/O)cc(C(C)(C)C)c1O
  nt	0.3	?	nt	-3.2	0.3	6
CCC(=O)Nc1cc(C(=O)O)ccc1Sc1ccc(C)cc1
  0.71	-7.0	nt	4.9	-7.1	-0.6	-2
Cc1csc2nc(COC(=O)c3cccc(N(C)C)c3)cc(=O)n12
  0.7	-3.1	nt	-11	3.1	-2.0	-16
COc1cc(/C=N/NC(=O)C(=O)/C=C2\NC(C)(C)Cc3ccccc32)ccc1O
  nt	0.2	27%	nt	-1.0	-0.6	11
CC(C)Cc1cc(C(=O)N2CCCC(CO)(Cc3ccc(F)cc3F)C2)n[nH]1 (stereo not drawn)
  0.73	-1.1	-3%	0.7	4.7	0.2	-4
Cc1ccccc1-c1nc(CN2CCC(C(=O)NCc3cccs3)CC2)c(C)o1
  0.68	-3.0	1%	3.3	-3.9	0.6	-1
CCc1nnc(NC(=O)c2ccc(-c3cc(C(F)(F)F)ccc3Cl)o2)s1
  0.76	0.3	?	-5.4	0.5	-0.5	-4
COc1ccc(C(=O)C2CCCN(Cc3ccc(C#CCCO)cc3)C2)c(OC)c1 (stereo not drawn)
  0.67	1.3	5%	3.0	-4.2	-0.1	-1
CC(C)OC(=O)CC1=NC(=O)CS1
  0.67	-2.2	15%	4.2	-2.9	-0.6	3
Cc1cc(OC(=O)c2cccc(Br)c2)c([N+](=O)[O-])c(=O)[nH]1
  0.77	3.4	nt	5.5	-1.2	0.1	16
CC(=O)N1CCc2c(sc(NC(=O)CCS(=O)(=O)c3ccccc3)c2C#N)C1
  0.72	1.2	2%	2.3	-0.4	-1.1	-4
CCOC(=O)C1CCN(C(=O)c2ccc(S(=O)(=O)Nc3ccccc3Cl)cc2)CC1
  0.66	0.5	2%	0.1	nt	nt	14
Cc1n[nH]c(=O)n1-c1ccc(Oc2ccccc2)cc1
  0.68	1.7	-2%	4.3	11	-1.9	-18
Cn1cnnc1SCC(=O)Nc1ccc2ccccc2c1
  0.65	4.4	-6%	-0.1	2.3	0.4	-2
O=c1[nH]c(CSc2nnc(-c3ccccc3)n2C2CCCCC2)nc2ccccc12
  0.64	-4.4	?	5.9	1.0	-0.8	-4
Cc1c(Cl)c([N+](=O)[O-])nn1CCCC(=O)Nc1c(Cl)cccc1Cl
  0.67	-0.3	18%	4.5	6.2	0.1	4
COC(=O)N(C)c1nc2ccccc2s1
  0.74	1.0	2%	-2.4	0.2	-4.6	-3
C=CCOc1ccc(C2NC(=O)NC(C)=C2C(=O)OC)cc1 (stereo not drawn)
  0.71	-3.9	12%	3.8	0.7	-0.5	-7
CCCC(C(=O)NC1CCCC1)N(C(=O)c1snc(C(N)=O)c1N)c1ccc(OCC)cc1 (stereo not drawn)
  0.67	-0.4	-10%	-9.9	-1.0	0.5	-5
N#Cc1ccccc1NC(=O)COC(=O)C1CCN(C(=O)c2ccc(Cl)cc2)CC1
  0.7	-0.3	nt	1.4	-4.5	0.3	-9
COc1ccc(NC(=O)c2c3c(nc4ccccc24)CCC3)cc1S(=O)(=O)N1CCOCC1
  0.67	-22	?	3.4	3.5	-0.8	4
C[C@@H]1O[C@@H](O[C@H]2[C@H](Oc3cc(O)c4c(c3)OC(c3ccc(O)cc3)CC4=O)O[C@H](CO)[C@@H](O)[C@@H]2O)[C@H](O)[C@H](O)[C@H]1O (stereo partly drawn)
  nt	0.8	nt	2.3	-0.4	-0.5	7
CCOC(=O)c1ccc(NC(=O)c2cccc(S(=O)(=O)N3c4ccccc4CC3C)c2)s1 (stereo not drawn)
  0.75	-1.2	-2%	-23	6.0	-0.6	12
Oc1ccc(N=Nc2cccc(Cl)c2)cc1C=Nc1ccc(N2CCOCC2)cc1
  0.64	-2.5	nt	9.1	nt	nt	9
COc1ccc(N2CCN(CC(=O)Nc3sccc3C#N)CC2)cc1
  0.73	1.9	nt	5.3	1.4	0.5	0
O=C(CSc1nc(-c2ccccc2Cl)ns1)Nc1ccc2c(c1)OCO2
  0.72	-2.5	nt	3.5	-6.1	0.1	-2
C[n+]1c(/C=C/c2ccc(O)cc2)ccc2ccccc21
  0.66	2.3	14%	16	-5.5	-1.3	-27
COc1ccccc1C(=O)Nc1ccc2nc(SCC(=O)N(C)C)sc2c1
  0.67	1.8	nt	2.4	-3.5	0.1	-10
COc1ccc(C2C(C(=O)Nc3ccccc3)=C(C)N=C3SCC(=O)N32)cc1 (stereo not drawn)
  0.74	1.3	14%	5.7	-0.8	0.7	-1
CCOC(=O)CCC(=O)N1CCNC(=O)C1
  0.73	-2.7	81%	-3.6	-5.5	-0.2	0

Next compounds follow:
Results follow in this order: E coli growth	HNF4A DNA FP	Vif A3G	UCH37 inh	LANA-H2B inh	Bfl-1 A1 inh	Beta2AR agonist
Cc1c(C(=O)OCC(=O)NCc2ccccc2)oc2ccccc12
  0.63	-0.6	4%	1.0	4.1	0.2	-3
CCC(C)[C@H](NC(=O)c1cc2cc(Cl)ccc2n1C)C(=O)N1CCC(C(=O)O)CC1 (stereo partly drawn)
  0.68	0.0	-4%	2.5	3.6	-0.1	4
O=C1CSC(=S)N1N=Cc1ccc(Cl)cc1Cl
  nt	2.7	-2%	nt	nt	nt	6
NC(=O)CSc1nnc(Cn2c(=O)sc3ccccc32)n1CCc1ccccc1
  0.69	0.2	14%	1.4	3.2	0.6	-3
Cc1ccccc1OCc1nnc(SCC(=O)O)n1Cc1ccccc1
  0.7	3.0	-1%	1.6	-1.8	0.6	7
O=C(COC(=O)c1c2c(nc3ccccc13)CCCCC2)c1ccc(Cl)s1
  0.66	-0.1	-5%	1.1	nt	0.2	0
COc1ccccc1C(=O)NC(C)c1nc2ccccc2[nH]1 (stereo not drawn)
  0.67	5.0	-6%	3.1	-0.4	0.4	-1
O=C(N/N=C/c1coc2ccccc2c1=O)c1cc(Br)ccc1O
  nt	46*	nt	nt	2.4	0.2	3
O=C(Cn1ncc2c([nH]c3ccccc32)c1=O)NCC1CCN(Cc2ccc(F)cc2)CC1
  0.68	-1.1	-1%	2.3	-2.6	-0.3	-5
CCOc1ccccc1C(=O)Nc1nnc(C(C)C)s1
  0.7	-1.8	-1%	1.7	-3.8	-1.6	-5
C[C@H](CO)N1C[C@H](C)[C@@H](CN(C)S(=O)(=O)c2cccs2)Oc2c(NC(=O)c3ccncc3)cccc2C1=O
  0.77	3.3	nt	-4.8	-0.9	0.2	-4
Cc1ccc(C(=O)NNC(=O)c2ccccc2O)cc1S(=O)(=O)N1CCCCC1
  0.72	-3.1	10%	-0.9	-1.0	1.4	4
COc1ccc(C(=O)Nc2nnc(S(=O)(=O)Cc3ccc(F)cc3)s2)cc1
  0.68	7.4	nt	1.2	18*	0.4	6
Cc1ccc(NC(=O)c2ccc3ncsc3c2)cc1S(=O)(=O)N(C)C
  0.69	nt	1%	3.8	-0.5	-0.3	nt
COc1cccc(Oc2nc(N)ncc2[N+](=O)[O-])c1
  0.64	-0.4	nt	4.7	-0.4	0.9	5
COc1cc(C(=O)Nc2ccc(OCC(=O)N3CCOCC3)cc2C)cc(OC)c1OC
  0.66	0.2	1%	5.5	-1.6	-1.2	0
COC(=O)CC1(c2ccc(OC)cc2)C(=O)c2ccccc2C1=O
  0.64	6.4	-5%	5.0	0.8	0.3	-1
Cc1nn(CC(=O)N2CCN(c3ccccn3)CC2)c(=O)c2cc3sccc3n12
  0.7	-1.7	nt	0.3	-0.8	-0.3	-6
Cc1noc(C)c1C(=O)Nc1nc2ccc(S(C)(=O)=O)cc2s1
  0.71	2.6	nt	7.9	-1.6	-8.9	3
O=C(Nc1cccc(C(=O)Nc2ccccc2F)c1)c1ccccc1
  0.68	0.3	nt	1.9	-3.2	-0.4	0
CCN(CC(=O)Nc1ccc(OC)cc1)CC(=O)Nc1ccc(Br)cc1F
  0.67	-2.7	-2%	0.8	1.1	1.0	-4
O=C(c1cc(Cl)nc2ccccc12)N1CCN(S(=O)(=O)c2cccc(F)c2)CC1
  0.7	4.9	4%	-0.4	-0.7	0.0	-3
CCc1nc(N)c(C#N)c(-c2ccc(F)cc2)c1C
  0.71	-2.7	-9%	-2.4	1.0	0.3	-3
